MenB inh = M. tuberculosis MenB inhibitors, primary screen, biochemical, absorbance | 1,4-dihydroxy-2-naphthoyl-CoA synthase (Mycobacterium tuberculosis (strain ATCC 25618 / … | MenB enzyme assay, absorbance read-out; some hits fall short of the stated cut | AID 540299, 2011 | inhibition, %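 (about 12 µg/mL by stock and volumes)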 | hit rate 0.43% among 100,000;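 active means mean of two replicates above 30%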;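 further: 0% = no compound and 100% = wells with inactive enzyme; the first replicate is given; strong numbers were not always called active; inactives centre near -10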
Target sequence (P9WNP5 whole entry, looked up): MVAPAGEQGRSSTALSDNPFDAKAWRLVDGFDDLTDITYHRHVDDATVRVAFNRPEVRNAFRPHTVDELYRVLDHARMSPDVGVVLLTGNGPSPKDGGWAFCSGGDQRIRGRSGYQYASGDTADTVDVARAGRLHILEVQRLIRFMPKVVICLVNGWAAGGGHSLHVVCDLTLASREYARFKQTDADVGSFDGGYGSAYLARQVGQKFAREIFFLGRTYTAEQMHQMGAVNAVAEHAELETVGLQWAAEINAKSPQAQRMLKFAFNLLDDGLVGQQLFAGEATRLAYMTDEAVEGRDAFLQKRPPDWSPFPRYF
Mtb MbtI inh = MbtI salicylate synthase inhibitors, primary screen, biochemical, fluorescence intensity; P9WFX0; purified MbtI enzyme, fluorescence intensity read-out; inhibition, %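 (about 17 µg/mL by stock and volumes)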; hit rate 0.89% among 100,000; AID 493033, 2011;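 active means above 50% in both replicates, above 80% if mildly self-fluorescent; inactive means the rest, strongly fluorescent compounds included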;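 further: 0% = mean of negative and 100% = mean of positive controls; one replicate is shown; some compounds called inactive have numbers as strong as hits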
Target sequence (P9WFX0 whole entry, looked up): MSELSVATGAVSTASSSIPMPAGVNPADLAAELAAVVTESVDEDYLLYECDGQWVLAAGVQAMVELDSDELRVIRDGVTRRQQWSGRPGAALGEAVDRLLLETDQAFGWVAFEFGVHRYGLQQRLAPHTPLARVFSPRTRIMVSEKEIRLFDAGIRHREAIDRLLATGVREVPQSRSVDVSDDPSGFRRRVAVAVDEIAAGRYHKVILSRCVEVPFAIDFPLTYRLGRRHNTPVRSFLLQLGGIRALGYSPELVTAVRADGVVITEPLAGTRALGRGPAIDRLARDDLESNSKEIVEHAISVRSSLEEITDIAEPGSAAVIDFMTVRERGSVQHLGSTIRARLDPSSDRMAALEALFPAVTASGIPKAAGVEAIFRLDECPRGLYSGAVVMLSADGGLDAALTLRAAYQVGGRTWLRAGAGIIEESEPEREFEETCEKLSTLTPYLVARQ
Polio RdRp inh = poliovirus RdRp elongation inhibitors, primary screen, biochemical, fluorescence polarization, total intensity | Genome polyprotein (Poliovirus type 1 (strain Mahoney)), P03300 | poliovirus polymerase elongation; stronger effect = lower value | % elongation, % (compound at 16.7 µg/mL) | hit rate 0.66% among 150,000; in the data active means % elongation below about 90%; further: some results filed as inactive read as strong as hits
Polio RdRp inh intensity = also measured in Polio RdRp inh; calls as there; % elongation; measured here: total intensity read-out; formula for this scale not given here;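 total fluorescence in place of polarization; lower means less elongation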
An asterisk follows results filed as active; · = not tested or not shown.

Start of the listing, in advance:
structure	MenB inh	Mtb MbtI inh	Polio RdRp inh	Polio RdRp inh intensity
O=C(NCC(c1cccs1)N1CCOCC1)c1cc(F)cc(F)c1 (configuration not stated)	-18	19	103	96
COc1cccc2c1c(NC(=O)CSCC(=O)O)nn2C	4	0	103	112

The list itself, repeating the preview:
structure	MenB inh	Mtb MbtI inh	Polio RdRp inh	Polio RdRp inh intensity
O=C(NCC(c1cccs1)N1CCOCC1)c1cc(F)cc(F)c1 (configuration not stated)	-18	19	103	96
COc1cccc2c1c(NC(=O)CSCC(=O)O)nn2C	4	0	103	112
CCOC(=O)c1c(N)sc(N)c1C(=O)OCC	1	97*	98	101
Cc1ccc(NC(=S)NC2CN3CCC2CC3)cc1 (configuration not stated)	-12	14	101	101
CCc1cc(=O)oc2cc(C)c3c(C(C)(C)C)coc3c12	8	-8	104	106
O=C1CCn2cccc21	-12	14	104	101
Cc1cc(C)c(C(=O)COC(=O)c2c(C)noc2C)cc1C	-2	3	106	101
CCS(=O)(=O)C(=C(Nc1ccc(OC)cc1)Nc1ccc(OC)cc1)S(=O)(=O)CC	3	12	103	105
COC(=O)c1cn(CCOc2ccccc2)c2ccccc12	-17	-7	102	101
CCCN1CCN(C(=O)c2ccc(S(=O)(=O)N3CCCc4ccccc43)cc2)CC1	-31	-5	104	99
O=C(CCC(=O)Nc1ccc(F)cc1)Nc1ccc(F)cc1	-29	·	105	111
Cc1ccc(-c2ccc(CCC(=O)O)[nH]2)cc1	-15	·	108	112
O=C1CC2C(=O)NCCN2C(=NC(=O)c2ccc(Cl)cc2)N1 (configuration not stated)	15	10	100	101
COCSc1nnc(-c2ccncc2)n1-c1ccc(C)c(C)c1	1	5	102	107
COc1ccc(CCN(C)C(=O)COc2ccc(NC(C)=O)cc2)cc1OC	-18	-7	100	89
Oc1c(Cl)cc(Cl)c(Cl)c1Cc1c(O)c(Cl)cc(Cl)c1Cl	4	-31	100	102
COc1ccc(CC(=O)Nc2c[nH]c(=O)[nH]c2=O)cc1OC	-9	·	98	97
N#Cc1ccc(COc2cnc3ccccc3n2)cc1	·	11	98	98
COCCN(Cc1ccccc1)C(=O)c1cnn(-c2ccccc2)n1	-50	51	95	101
CN=C(C)c1c(O)c2ccccc2oc1=O	-19	2	102	107
N#CCN(CC#N)C(=O)c1cccc(Cl)c1	-24	-3	99	100
FC(F)(F)c1cccc(C(c2nnnn2Cc2ccccc2)N(Cc2ccco2)CC2CCCO2)c1 (configuration not stated)	-115	6	104	103
Nc1nc(-c2cc3ccccc3oc2=O)nc2c1c(=O)oc1ccccc12	-1	-3	104	98
NC(N)=NC(N)=Nc1ccc(Br)cc1	2	14	104	106
CCOc1ccc2nc(NCCO)[nH]c2c1	-6	-1	100	98
CC(NC(=O)c1ccccc1)C(=O)NC1=NCCS1 (configuration not stated)	-4	6	·	·
Cc1cc(C)c2c(CC(=O)N(CCC#N)Cc3cccnc3)coc2c1	-23	-4	102	103
COc1ccc(CCNC(=O)CSc2nc3ccc(C)cc3[nH]2)cc1	·	-1	102	102
COC(=O)c1sc(SC)c(-c2ccn(C(=O)c3ccc(Cl)cc3)n2)c1C	-7	10	103	104
N#CC(C(=O)NCc1ccc2c(c1)OCO2)c1ccccc1 (configuration not stated)	-9	-8	99	103

Continued.
structure	MenB inh	Mtb MbtI inh	Polio RdRp inh	Polio RdRp inh intensity
O=C(NN1C(=O)c2ccccc2NC1c1ccco1)c1ccc(Br)cc1 (configuration not stated)	3	55	100	99
CCC(Sc1nc2cc(OC)c(OC)cc2c(=O)n1Cc1ccco1)C(=O)Nc1ccc(C)cc1 (configuration not stated)	-2	12	105	99
CCOc1ccc(Nc2nc3cc(C)ccc3cc2C)cc1	1	24	100	108
O=C(CC(=O)c1ccccc1)Nc1cccc(C(=O)O)c1	-8	·	99	103
O=C(NCc1nc(-c2ccccc2)no1)C(c1ccccc1)c1ccccc1	-22	-10	108	102
N#Cc1ccc2c(c1)nc1c3ccc4c5c(ccc(c(=O)n21)c53)C(=O)NC4=O	-27	-9	99	104
CN(C)c1nc(N)c2c(N)nc3c(c2c1C#N)CC(=O)N3C(=O)NC12CC3CC(CC(C3)C1)C2	19	-7	·	·
CCCCN(Cc1ccco1)C(=O)Cn1ncc2c1-c1cc(C)ccc1OC2	-35	-4	102	104
Cc1c(C)c(O)c(Cc2ccc3ccccc3n2)c(C)c1O	-45	13	102	96
CC(=O)Nc1ccc(-n2c(C)ccc2-c2ccccc2)cc1	-14	28	102	103
CC1CN(CC(O)COc2ccc(C(C)C)cc2)CC(C)O1 (configuration not stated)	·	-10	103	103
CNC(=O)N1CCCC(Cn2cccc2)C1 (configuration not stated)	-1	-9	102	108
Cc1nc2ncnn2c(C)c1CCC(=O)OCc1ccc(C#N)cc1	-26	9	98	93
COC(=O)Cc1c(C)n[nH]c1C	-8	-3	105	108
Cc1ccc(C(=O)/C=C2/NCCNC2=O)cc1	-79	0	102	101
Cc1ccc(-n2nc(C)c3c(C)c(CCC(=O)NN4CCOCC4)c(C)nc32)cc1C	-27	70	103	98
CSc1nc(-c2ccccc2)[nH]c1S(=O)(=O)c1ccccc1	-7	14	103	101
O=c1[nH]c(=S)[nH]nc1Cc1ccc(Cl)c(Cl)c1	-27	58*	102	107
Fc1ccc(C2CC(c3ccco3)=Nc3ccccc3S2)cc1 (configuration not stated)	-14	6	100	102
CN1CCN(CCCNS(=O)(=O)c2ccc(-c3cc(C(F)(F)F)no3)s2)CC1	-13	-8	102	103
COc1ccc(CCN(C)CN2C(=O)C3CC=CCC3C2=O)cc1OC (configuration not stated)	-20	-1	102	102
Cc1nn(-c2ccc(F)cc2)c(Cl)c1/C=C/C(=O)N1CCN(CC2CCCO2)CC1 (configuration not stated)	1	10	105	105
N#Cc1ccc(C(=O)N2CCCC2)cc1	·	-3	103	99
CCC(=O)N1CCc2cc(Br)cc(S(=O)(=O)C3(C(=O)OC)CC3)c21	-5	-6	102	108
Cc1ccc(N2CCN(c3cnn(C45CC6CC(CC(CC(=O)O)(C6)C4)C5)c(=O)c3Cl)CC2)c(C)c1	-2	2	100	99
COc1cc(OC)c(NC(=O)c2cc3c(CO)cnc(C)c3oc2=O)cc1Cl	13	20	100	99
CCO/C=C(/C#N)c1nc(C)cs1	0	13	43	238
O=c1[nH][nH]c(=S)n1Cc1ccco1	0	37	104	104
O=C(Nc1ccccc1Br)c1ccccc1Oc1ccccc1	2	·	98	96
Cc1ccc(S(C)(=O)=NS(=O)(=O)c2cccc3nsnc23)cc1 (configuration not stated)	-5	2	100	100

Compound profiles, as listed above. Screens in order: MenB inh, Mtb MbtI inh, Polio RdRp inh, Polio RdRp inh intensity
Profile of Cc1c(C)c(O)c(Cc2ccc3ccccc3n2)c(C)c1O : -45, 13, 102, 96
Profile of CCOc1ccc(Nc2nc3cc(C)ccc3cc2C)cc1 : 1, 24, 100, 108
Profile of COc1ccc(CCN(C)CN2C(=O)C3CC=CCC3C2=O)cc1OC (configuration not stated) : -20, -1, 102, 102
Profile of CC(NC(=O)c1ccccc1)C(=O)NC1=NCCS1 (configuration not stated) : -4, 6, ·, ·
Profile of CCCCN(Cc1ccco1)C(=O)Cn1ncc2c1-c1cc(C)ccc1OC2 : -35, -4, 102, 104

Next part.
structure	MenB inh	Mtb MbtI inh	Polio RdRp inh	Polio RdRp inh intensity
O=C(CCN(Cc1ccco1)S(=O)(=O)c1ccc(Cl)cc1)Nc1ccc(Cl)cc1	-18	7	107	105
COc1cc(-c2nc3ccccc3c(=O)[nH]2)cc(Cl)c1O	-9	7	100	101
CCc1ccc(CCC(=O)Nc2ccc(C)c(C)c2)o1	11	8	101	105
COC(=O)/C=C/c1ccc(SC)cc1	-5	11	101	104
COc1ccc(-c2nc3scc(CCNC(=O)/C=C/c4ccco4)n3n2)cc1	13	57	101	104
C(C=Cc1ccn[nH]1)=Cc1ccccc1	-14	-8	106	105
CCOC(=O)C1CCCN(S(=O)(=O)c2ccc(OC)cc2)C1 (configuration not stated)	-30	-2	102	102
Cn1ncc(C(=O)O/N=C(\c2ccccc2)c2ccccc2N)c1-n1cccc1	-19	-2	104	93
CCOC(=O)CSc1nnc(NCc2ccccc2)s1	-31	0	100	91
CN(C)Cc1c(O)[nH]c(=S)[nH]c1=O	0	22	100	101
CCS(=O)(=O)c1ccc(O)c(NC(=O)c2ccncc2)c1	-10	11	100	99
CC1(C)C2CC=C(/C=N/O)C1C2 (configuration not stated)	-19	4	101	94
O=C(NNc1cc(Cl)ccc1Cl)C1CCCS1 (configuration not stated)	-10	-1	102	105
COc1cc2c(cc1OC)C(C(=O)NC1CCCCC1)C(c1cccnc1)N(C)C2=O (configuration not stated)	-10	5	101	103
COc1ccc(OC)c(/C=C/C(=O)OC(C)C(=O)Nc2ccc(S(=O)(=O)N3CCOCC3)cc2)c1 (configuration not stated)	-14	133	109	109
Cc1cccc(CN2CCN(CC(=O)NCc3ccc4c(c3)OCO4)C2=O)c1	2	-3	102	103
CC(C)C(NC(N)=O)C(=O)NCc1ccc(Cl)cc1Cl (configuration not stated)	-1	-10	104	92
COC(=O)C1Cc2ccccc2CN1Cn1nc2sc3ccccc3n2c1=S (configuration not stated)	-21	72	95	98
Cc1cc(C(=O)CN2C(=O)NCC(C)C2=O)c(C)n1C (configuration not stated)	14	-3	106	109
COC(=O)c1ccccc1NC(=S)Nc1ccccn1	2	·	101	100
CSC1=N/C(=C\c2ccc(Cl)cc2)C(=O)N1N(C)C	-3	-8	99	96
Oc1ccccc1CNCC12CC3CC(CC(C3)C1)C2	·	-10	103	106
O=C(Cc1n[nH]c(=O)c2ccccc12)Nc1ccccc1OC(F)F	-22	-3	104	106
CC1Cc2nc(SC/C=C/c3ccccc3)n(C)c(=O)c2S1 (configuration not stated)	-33	-1	100	106
Cc1ccc(CSCCC(=O)N2CCN(c3cccc(C)c3C)CC2)cc1	5	6	105	98
Cc1nnc(-n2cnc3ccccc32)c2ccccc12	-21	11	100	102
COC(=O)c1cc2ccc(OC)c(OC)c2c(=O)s1	-24	-54	102	103
CC1(C)CC(Nc2ncnc3sccc23)CC(C)(C)N1	-8	-32	101	108
O=C(Nc1cc(Cl)ccc1Cl)C1COc2ccccc2O1 (configuration not stated)	-11	·	113	119
O=C(OCc1csc(-c2ccccc2)n1)c1cccs1	-15	5	106	112

More compounds follow:
structure	MenB inh	Mtb MbtI inh	Polio RdRp inh	Polio RdRp inh intensity
CCC(C)NC(=O)c1ccc2c(Cl)c3c(nc2c1)CCC3 (configuration not stated)	-11	-21	100	108
CCOC(=O)C1C(=O)NC2(C)Oc3ccccc3C1C2C (configuration not stated)	·	-7	102	103
N#Cc1ccc(OCc2nnc(SCC(=O)c3ccccc3)n2-c2ccccc2)cc1	-21	-5	102	101
CCOc1ccc2nc(NC(=O)CSc3nnc(Cc4csc(C)n4)o3)sc2c1	-38	-6	149	180
COCCNC(=O)c1cc(-c2cccc(OC)c2)no1	11	-8	101	102
Cc1ccc2nncc(N3CCN(c4ccccc4F)CC3)c2c1	17	-4	101	102
Oc1ccc(-c2[nH]ncc2-c2cccc3cccnc23)c(O)c1	·	-35	103	102
CCN=C1SC(CC(=O)Nc2cccc(C(=O)O)c2)C(=O)N1CC (configuration not stated)	3	-2	101	103
CC1CCN(CN2C(=O)CCC2=O)CC1	-38	-7	100	102
CC12CCC(=O)N1C(C(=O)OCC(=O)N1CCc3ccccc31)CS2 (configuration not stated)	-5	11	101	105
CCOC(=O)c1c[nH]c2c(C(=O)OC)cccc2c1=O	-1	·	101	104
CCOC(=O)c1[nH]c(C)c(S(=O)(=O)NC2CCCCNC2=O)c1C (configuration not stated)	-17	14	105	105
CCCCn1nc(C)c(C(=O)O)c1Cl	12	-10	104	108
O=C(COc1ncnc2c1cnn2-c1ccccc1)N1CCc2ccccc21	-28	0	102	99
CC1(C)C2CC=C(CN3CCN(c4ccccc4)CC3)C1C2 (configuration not stated)	-8	-10	99	104
Cc1cccc(OCc2nnc(SCC(=O)N3c4ccccc4CCc4ccccc43)o2)c1	1	9	101	102
CC(C(N)=O)N1c2cccc3cccc(c23)S1(=O)=O (configuration not stated)	-12	4	102	103
CCCN1CCc2c(sc(NC(=S)NC(=O)c3ccccc3)c2C#N)C1	-37	57	70	191
O=c1[nH]c2ccccc2n1CCCSc1ncnc2ccccc12	-1	24	98	102
CC1(C)N(O)C2=C(N=O)CCC(N=O)=C2N1O	-8	5	101	101
O=C(Nc1nnc(C(F)(F)F)s1)C1CC(=O)N(c2ccc(Cl)cc2)C1 (configuration not stated)	23	9	101	99
O=C(CN1CCN(Cc2ccc3c(c2)OCO3)CC1)N(c1ccccc1)C1CCS(=O)(=O)C1 (configuration not stated)	2	6	102	98

Assay outcomes deposited in PubChem BioAssay by ICCB-Longwood Screening Facility, Harvard Medical School.

Hits appear at their usual frequency, and some 1.8% of all compounds hit somewhere here.
